N370S GC mod = N370S glucocerebrosidase modulation, Gaucher chaperone candidate | Potency, µM (titrated, usually from 59.4 µM), for inactives: at the highest dose activity change, negative = inhibition, hits mostly inhibitors | N370S GC spleen homogenate, 4MU-glucoside fluorescence | actives 0.092% (n = 330,000) | AID 2101 | P04062;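 also: 0% = full enzyme activity and -100% = no enzyme basal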
DT40 TDP1 no CPT = qHTS for Inhibitors of human tyrosyl-DNA phosphodiesterase 1 (TDP1): qHTS in cells in absence of CPT; actives 15% (n = 420,000); AID 686978, 2013; DT40 Tdp1-/- hTDP1 cells, no CPT, ATP luminescence, 48 h; Potency, µM (titrated, usually from 46.2 µM), for the others: top-dose activity change, negative = growth inhibition, actives largely listed as inhibitors; also: nearly all actives have a fitted effect of over 55% in size
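No-CPT arm: Tdp1-/-;hTDP1 DT40 cells (400/well) plus compounds, incubated ≥48 hr at 37 °C. Readout CellTiter-Glo luminescence.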
Numbers without * were called inactive; / = no result given; & = joins results of further samples; [ ] = dose if it differs, or a comment. Calls follow the shape of the dose curve; as a rule, active = well fitted curve in the direction sought with a large enough effect; inconclusive = small, poorly fitted or top-dose-only effect, or another doubt; inactive = no such curve, though single readings can be large; an effect the other way counts as inactive or inconclusive. Unless noted, % is scaled to controls: 0 for no effect and ±100 for the full control effect; potency is read from the fitted curve at half-maximal effect. Some of the compounds tested; most or all hits stand in other tables.

1: COc1ccc(O[C@H]2C=C[C@@H](c3ccccc3)O[C@@H]2COC(=O)CC/C(C)=N/OC[C@@H](O)[C@H]2O[C@@H]3OC(C)(C)O[C@@H]3[C@H]2O)cc1
2: COC(C1CCCCC1)C(C)C(OCc1cccc(Br)c1)C(C)CO (configuration not stated)
3: O=C1CCCC=C1[C@@H](O)CCOCc1ccccc1
4: CCCn1c(C)nc2c(NCCCCN(C)C)nc(C)nc21
5: COc1ccc2nc(NC3=NCN(CC4CCCO4)CN3)nc(C)c2c1 (configuration not stated)
6: Cc1cc2nc3c(=O)[nH]c(=O)[nH]c3nc2c([N+](=O)[O-])c1N

Compound	1	2	3	4	5	6
DT40 TDP1 no CPT	/	/	/	/	/	-13.4%
N370S GC mod	-14.7%	-7.2%[12.8 µM]	1.4%[12.8 µM]	-11.6%	9.0%	0.8%

7: Cc1cc(C)n(C(=O)c2sc3cc(F)ccc3c2Cl)n1
8: CC12CCC=CC1C(c1ccc(Br)cc1F)N(Cc1ccccc1)C2=O (configuration not stated)
9: COC(=O)[C@H](Cc1ccccc1)NC(=O)O[C@@H]1C(=O)c2cc(Br)ccc2O[C@H]1c1cccc(OC)c1
10: c1ccc(COCc2ccccc2)cc1
11: COc1ccc(/C=N/NC(=S)Nc2ccccc2)cc1COc1ccccc1F
12: CC(C)CCOc1ccc(C(=O)CCNC(C)C(=O)O)cc1 (configuration not stated)

Compound	7	8	9	10	11	12
DT40 TDP1 no CPT	/	/	/	/	/	/
N370S GC mod	3.2%	2.7%	-8.1%&5.1%	-0.4%	-9.1%	2.4%

2 entries drawn at random from those above, as already listed:
4: CCCn1c(C)nc2c(NCCCCN(C)C)nc(C)nc21
2: COC(C1CCCCC1)C(C)C(OCc1cccc(Br)c1)C(C)CO (configuration not stated)

Compound	4	2
DT40 TDP1 no CPT	/	/
N370S GC mod	-11.6%	-7.2%[12.8 µM]

The list goes on.
13: COc1cccc(N/C(N)=N/c2nc(CSc3ccccn3)cc(=O)[nH]2)c1
14: COC(=O)N[C@H](C[N+](=O)[O-])C(C)(C)C
15: COC(=O)N[C@@H](c1cccc(C)c1)C(C(C)=O)C(=O)OC (some centres not stated)
16: Cc1cc(C(=O)N/N=C/c2cc(Br)ccc2OC(=O)c2ccc(Br)cc2)n[nH]1
17: O=C(O)CCc1ccc(NCc2cccc(Oc3ccccc3)c2)cc1
18: CC1(C2(O)CC(c3ccccc3)ON2)CCCCC1 (configuration not stated)

Compound	13	14	15	16	17	18
DT40 TDP1 no CPT	/	/	/	/	/	/
N370S GC mod	-2.7%	-2.4%	-0.9%	5.8%	3.4%	7.7%

19: COc1ccccc1NC(=O)Nc1nnc(-c2ccco2)s1
20: Cc1ccc(NC(=O)c2cc3c(=O)oc4ccc(C)cc4c3s2)nc1
21: c1ccc(-c2ccc(-c3ccccn3)nn2)nc1
22: CCOC(=O)CNC(=O)O[C@@H]1C(=O)c2cc(Br)ccc2O[C@H]1c1cccc(OC)c1
23: Cc1ccc(N=CC2=C(O)CC(c3cccc(Cl)c3)CC2=O)cc1 (configuration not stated)
24: COC(=O)[C@@H]1CC[C@H](C)[C@@H](c2ccc(C)cc2)N1C(=O)c1ccc(/C=N\OC[C@@H](O)[C@H]2O[C@H]3OC(C)(C)O[C@H]3[C@@H]2O)cc1

Compound	19	20	21	22	23	24
DT40 TDP1 no CPT	/	/	/	/	-21.6%	/
N370S GC mod	4.7%	2.9%	1.0%	4.5%	-1.2%	-3.9%[12.8 µM]

25: CSC(N)=NCCCC(N)C(=O)O (configuration not stated)
26: O=C(NCc1cccs1)C1CCCN1C(=O)Nc1ccc(Cl)cc1 (configuration not stated)
27: Cn1ncc2c(NCc3cccc(C(F)(F)F)c3)c(C(=O)O)cnc21
28: CCOC(=O)C1=C(O)CSC1=Nc1cccc(Cl)c1
29: COc1cc(OC)c(C(=O)NCC(c2cccs2)N(C)C)cc1OC (configuration not stated)
30: NCC(O)C1CCCCCCC1 (configuration not stated)
31: C=C(C)C(=O)OCC1CN2C(CCC(C)C2c2ccc(Br)cc2)C(=O)O1 (configuration not stated)
32: COC(=O)C(C(=O)OC)C1O[C@@]23COCCC2(C)C3c2ccccc21 (some centres not stated)
33: COCCNC(=O)C1(C(F)(F)F)C/C(=C/CCO)CCCO1 (configuration not stated)

Compound	25	26	27	28	29	30	31	32	33
DT40 TDP1 no CPT	-5.9%	/	/	0.7%	/	/	/	/	/
N370S GC mod	14.7%	-3.1%	7.6%	-4.2%	-2.5%	-3.4%	1.6%&6.7%&-2.1%[12.8 µM]	10.0%[12.8 µM]	-2.4%

As entered above:
N370S GC mod result of entry 12 reads 2.4%
N370S GC mod result of entry 26 reads -3.1%

Compound profiles (already shown).
Listed for `COc1cc(OC)c(C(=O)NCC(c2cccs2)N(C)C)cc1OC` (configuration not stated) : DT40 TDP1 no CPT = /; N370S GC mod = -2.5%
Listed for `COC(=O)C(C(=O)OC)C1O[C@@]23COCCC2(C)C3c2ccccc21` (some centres not stated) : DT40 TDP1 no CPT = /; N370S GC mod = 10.0%[12.8 µM]
Listed for `COCCNC(=O)C1(C(F)(F)F)C/C(=C/CCO)CCCO1` (configuration not stated) : DT40 TDP1 no CPT = /; N370S GC mod = -2.4%

Reformatted as labelled records: part of the list above.
22: CCOC(=O)CNC(=O)O[C@@H]1C(=O)c2cc(Br)ccc2O[C@H]1c1cccc(OC)c1
  DT40 TDP1 no CPT: /
  N370S GC mod: 4.5%
23: Cc1ccc(N=CC2=C(O)CC(c3cccc(Cl)c3)CC2=O)cc1 (configuration not stated)
  DT40 TDP1 no CPT: -21.6%
  N370S GC mod: -1.2%

Source: PubChem
